Screens deposited in PubChem by several laboratories.
Mtb growth: M. tuberculosis H37Rv growth inhibitors, H37Rv strain (AID 1626) | one-dose inhibition, % at 10 µM; IC50 in µM for titrated hits | M. tuberculosis H37Rv growth inhibition; higher % means a stronger effect | 0.95% of 220,000 active;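 active means confirmed in a dose series; inconclusive means inhibition above 80% but not taken into the dose series; inactive means below 80% or under 30% at every dose of the series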;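 further: bacteria incubated seven days before Alamar blue readout; 0% = bacteria only wells and 100% = bacteria with antibiotic wells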
Arbovirus anti: antivirals against arbovirus infection, primary screen, cell-based, full library, 10K replicate subset; arbovirus infection cell-based antiviral screen; inhibition, % at 10 µM; 0.37% of 200,000 active;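 active means inhibition from about 30%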;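 further: bluetongue infection of BSR cells; cell survival read as ATP light after 72 h; 0% = infected wells without compound and 100% = uninfected wells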
RecA splice inh: Mtb RecA intein splicing inhibitors, primary screen, biochemical, fluorescence, HTS; Protein RecA (Mycobacterium tuberculosis (strain ATCC 25618 / H37Rv)), P9WHJ3; cell-free RecA intein splicing; inhibition, %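 (about 9 µM by stock and volumes)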; 0.75% of 290,000 active; AID 2221, 2009; in the data active means inhibition above about 30%; inconclusive means no clear call, values can overlap the other calls;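 further: 0% = vehicle wells and 100% = reference inhibitor control wells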
Target sequence (P9WHJ3 whole entry, looked up, canonical isoform): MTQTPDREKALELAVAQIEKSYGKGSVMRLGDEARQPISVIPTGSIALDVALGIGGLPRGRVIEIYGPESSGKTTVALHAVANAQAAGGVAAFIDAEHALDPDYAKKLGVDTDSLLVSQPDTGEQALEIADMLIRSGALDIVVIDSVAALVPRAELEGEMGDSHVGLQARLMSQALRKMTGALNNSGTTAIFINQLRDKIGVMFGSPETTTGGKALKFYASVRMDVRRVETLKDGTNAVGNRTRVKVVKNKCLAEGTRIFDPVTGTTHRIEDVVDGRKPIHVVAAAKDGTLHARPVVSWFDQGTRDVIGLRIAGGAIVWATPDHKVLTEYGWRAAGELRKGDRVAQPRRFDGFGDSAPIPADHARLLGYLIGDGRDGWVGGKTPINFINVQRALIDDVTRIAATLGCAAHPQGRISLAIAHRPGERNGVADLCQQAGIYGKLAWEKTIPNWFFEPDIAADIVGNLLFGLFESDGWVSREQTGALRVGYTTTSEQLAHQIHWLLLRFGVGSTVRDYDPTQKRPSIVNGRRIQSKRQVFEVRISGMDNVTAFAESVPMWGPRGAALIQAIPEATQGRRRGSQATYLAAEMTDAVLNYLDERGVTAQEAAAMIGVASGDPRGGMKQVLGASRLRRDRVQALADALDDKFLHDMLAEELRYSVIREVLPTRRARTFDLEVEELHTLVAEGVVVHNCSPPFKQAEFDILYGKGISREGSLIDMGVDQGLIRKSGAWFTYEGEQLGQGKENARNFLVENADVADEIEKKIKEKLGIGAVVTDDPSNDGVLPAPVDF
YopH PTP inh: YopH tyrosine phosphatase inhibitors, primary screen, biochemical, fluorescence Ex485/Em525. inhibition, %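 (about 10 µM by stock and volumes)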. AID 898, 2007. 0.16% of 140,000 active;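 active means inhibition of 50% or more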;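 further: controls were vehicle for no effect and minimum signal wells for full effect; inactives centre near -20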
Mtb betalactam: beta-lactam sensitization of Mtb H37Rv, H37Rv. M. tuberculosis H37Rv growth with meropenem, percent inhibition; hits of this screen are not shown here. inhibition, % at 25 µM. 0.27% of 330,000 active. AID 434955, 2010;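 active means about 74% or more and at least 40 points above the plate without the antibiotic, then above 30% in a dose series; inconclusive means first-round hits that could not be retested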;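 further: growth measured after seven days incubation then overnight dye step; 0% = bacteria only wells and 100% = bacteria with antibiotic; twin plates without the antibiotic show which effects depend on it; some results filed as inactive read as strong as hits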
Arbovirus anti repeat: recorded beside Arbovirus anti, whose call it bears; inhibition, %; measured here: 10K subset replicate screen; many hits read low in the repeat;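 first of two repeat runs on a subset; 0% = infected and 100% = uninfected wells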
* hit, by the source's call; ? = inconclusive; · = not tested or not shown. An excerpt; the hit share may differ from the screen's.

SMILES | Mtb growth | Arbovirus anti | RecA splice inh | YopH PTP inh | Mtb betalactam | others
CCN(CC)c1ccc(/C=N/NC(=O)c2ccc3nc[nH]c3c2)c(O)c1 | 5% | · | · | · | -1
COc1ccc(NC(=O)C2CCCN(S(C)(=O)=O)C2)cc1OC (stereo unspecified) | · | · | -5.0 | · | -6
Cc1cc2ccccc2nc1Br | -4% | 6 | -1.4 | -1 | -1
CCOC(=O)C(Cc1ccccc1)NC(=O)CCc1c(C)nc2nc(C)nn2c1C (stereo unspecified) | -10% | 4 | · | -3 | -9
CCn1c(SCC(=O)NC(C)c2ccccc2)nc2ccccc21 (stereo unspecified) | -2% | 1 | · | -9 | 0
COc1cccc(C(=O)N2CCN(C3CCCCC3)CC2)c1 | · | · | -2.5 | · | -5
Cc1ccc(CN2CC34C=CC(O3)C(C(=O)NCc3ccco3)C4C2=O)cc1 (stereo unspecified) | -4% | -1 | 1.8 | -37 | ?
COc1cc(CCC(=O)NCc2ccc(F)cc2)cc(OC)c1OC | · | · | -2.2 | · | -7
COC(=O)c1sccc1NC(=O)Nc1ccc(OC)cc1 | · | · | 0.6 | · | 0
CC(=O)C1=C(C)NC(=O)CC1c1ccc(F)cc1 (stereo unspecified) | -2% | 0 | 2.7 | · | 2
C/C(=N\NC(=O)CC1N=C(Cc2ccccc2)NNC1=O)c1ccc(C)cc1 (stereo unspecified) | -5% | -17 | -3.3 | 12 | 1
O=C(COC(=O)Cc1c(F)cccc1Cl)NC(=O)c1ccccc1 | · | · | 0.9 | · | 0

In the list so far, three have sulfur.
SMILES | Mtb growth | Arbovirus anti | RecA splice inh | YopH PTP inh | Mtb betalactam | others
COc1ccc(NC(=O)C2CCCN(S(C)(=O)=O)C2)cc1OC (stereo unspecified) | · | · | -5.0 | · | -6
CCn1c(SCC(=O)NC(C)c2ccccc2)nc2ccccc21 (stereo unspecified) | -2% | 1 | · | -9 | 0
COC(=O)c1sccc1NC(=O)Nc1ccc(OC)cc1 | · | · | 0.6 | · | 0

Further entries:
SMILES | Mtb growth | Arbovirus anti | RecA splice inh | YopH PTP inh | Mtb betalactam | others
Cc1ccccc1Nc1c(-c2ccccc2)nc2ncccn12 | 11% | · | -2.4 | · | -6
Cn1ccnc1SCc1cn2ccccc2n1 | -2% | 3 | -0.4 | -29 | 4
CC1CN(S(=O)(=O)c2ccc(Cl)c(S(=O)(=O)N3CC(C)OC(C)C3)c2)CC(C)O1 (stereo unspecified) | -6% | -1 | 5.0 | -1 | -2 | Arbovirus anti repeat=-3
O=C(Nc1nccs1)c1c(O)c2c(n(Cc3ccco3)c1=O)CCCC2 | -4% | · | 0.7 | · | 20
COC(Cc1ccccc1N1CCCC1=O)OC | · | · | -0.1 | · | -6
O=C(CNC(=O)c1ccc(Br)cc1)OCC(=O)c1ccccc1 | · | · | -1.4 | · | 0
CCOc1cc(C(=O)N2CCC(CC3CC(c4ccc(Cl)cc4)=NO3)(C(=O)NCC3CCCCC3)CC2)cc(OCC)c1OCC (stereo unspecified) | · | · | 1.3 | · | 4
c1ccc2c(C[n+]3csc4ccccc43)cccc2c1 | · | -8 | 1.8 | -32 | -3
CCOC(=O)c1nn(-c2ccccc2)c(=O)cc1SC(C)C | -4% | 3 | -7.9 | -35 | 1
Cc1cccc2cc(COC(=O)c3cccc([N+](=O)[O-])c3)c(=O)[nH]c12 | -6% | · | 0.0 | · | -1
Nc1cc(=O)[nH]c(SCC(=O)Nc2ccc(F)c(Cl)c2)n1 | 2% | 5 | 1.3 | -9 | 1
Cc1ccccc1Nc1nc(N)nc(COC(=O)c2ccccc2)n1 | -2% | -5 | -4.7 | -20 | -5

Quoted at random: 6 records from the list.
SMILES | Mtb growth | Arbovirus anti | RecA splice inh | YopH PTP inh | Mtb betalactam | others
Cn1ccnc1SCc1cn2ccccc2n1 | -2% | 3 | -0.4 | -29 | 4
Cc1cccc2cc(COC(=O)c3cccc([N+](=O)[O-])c3)c(=O)[nH]c12 | -6% | · | 0.0 | · | -1
O=C(CNC(=O)c1ccc(Br)cc1)OCC(=O)c1ccccc1 | · | · | -1.4 | · | 0
O=C(Nc1nccs1)c1c(O)c2c(n(Cc3ccco3)c1=O)CCCC2 | -4% | · | 0.7 | · | 20
CC1CN(S(=O)(=O)c2ccc(Cl)c(S(=O)(=O)N3CC(C)OC(C)C3)c2)CC(C)O1 (stereo unspecified) | -6% | -1 | 5.0 | -1 | -2 | Arbovirus anti repeat=-3
COC(Cc1ccccc1N1CCCC1=O)OC | · | · | -0.1 | · | -6

Other entries follow.
SMILES | Mtb growth | Arbovirus anti | RecA splice inh | YopH PTP inh | Mtb betalactam | others
CCCSC1=C(C#N)C(c2ccc(O)c(OC)c2)CC(=O)N1 (stereo unspecified) | -5% | 8 | 1.8 | -40 | -5 | Arbovirus anti repeat=10
C/C(=N\NS(=O)(=O)c1ccc(C)cc1)c1cc2ccccc2oc1=O | 1% | -4 | -1.2 | · | -7
CCO[C@H]1OC(C(=O)NC2CC2)=C[C@@H](c2ccc(C(F)(F)F)cc2)[C@@H]1CCCO | -3% | 5 | -1.7 | · | -6
CCS(=O)(=O)N1CCN(C(=O)CCC2CCCC2)CC1 | -8% | 0 | -0.9 | -7 | 0
COc1ccc(-n2c3c(cc(C(=O)Nc4ccc5c(c4)C(=O)NC5=O)c2=O)C(=O)CCC3)cc1 | · | -6 | · | 18 | · | Arbovirus anti repeat=-2
Cc1ccc(NC(=O)COc2ccc(/C=C3/SC(=Nc4ccccc4)N(Cc4cccnc4)C3=O)cc2)cc1 | 3% | -20 | -5.6 | -15 | 1
CC(C)N1C(=O)CC2(CC[N+](C)(CCOC(=O)C(c3ccccc3)c3ccccc3)CC2)C1=O (stereo unspecified) | 3% | -1 | 5.7 | -20 | -1
CCN1C(=O)CCC(C(=O)O)C1c1ccc(OC)cc1 (stereo unspecified) | -9% | · | -0.6 | · | 0
COc1ccc(S(=O)(=O)NCC(=O)Nc2ccc3c(c2)OCCO3)cc1OC | · | · | -1.9 | · | -9
Cc1cc(C)nc(Nc2ncc(O)n2-c2ccc(C)c(C)c2)n1 | -6% | 7 | 1.9 | -8 | 8
O=C(Nc1ccccc1-c1nc2ccccc2s1)c1ccc(Br)o1 | 1% | -33 | · | 5 | 5
Cc1ccccc1CN(C)CC(=O)Nc1cccc(S(=O)(=O)N(C)c2ccccc2)c1 | 6% | 9 | 11 | · | -3
COc1ccccc1/C=C\C(=O)NCC(=O)N/N=C/c1cccc(OC)c1O | · | · | 6.3 | · | 1
CCn1c(SC(C)C)nnc1-c1c[nH]c2ccccc12 | 4% | -9 | -0.4 | · | -1
O=C(Nc1cccnc1)C(Cc1ccccc1)n1cccc1 (stereo unspecified) | -7% | -2 | -4.8 | -15 | -8 | Arbovirus anti repeat=2
Cn1nc(C(=O)Nc2ccccc2N2CCCC2)c2ccccc2c1=O | · | · | 3.9 | · | 85
O=C(Cc1cnc2ncnn2c1)N1CCc2c([nH]c3ccccc23)C1c1ccccc1F (stereo unspecified) | 2% | 19 | 3.9 | · | 2
O=C(Nc1nnc(S(=O)(=O)N2CCCCC2)s1)c1cccc(Br)c1 | · | · | -0.3 | · | 8
S=C1NCCc2ccc(Cl)cc2C1c1ccccc1 (stereo unspecified) | 9% | -8 | · | -31 | -3
Cc1ccsc1C(=O)C1CCCN(Cc2cnc(N(C)C)s2)C1 (stereo unspecified) | 2% | -4 | 1.4 | · | 7
CC(Nc1nc(-c2ccccc2O)nc2ccccc12)c1ccccc1 (stereo unspecified) | 9% | · | 1.4 | · | 0
COc1ccc(CCNC(=O)C2CCN(Cc3nc(-c4ccccc4F)oc3C)CC2)cc1OC | 1% | 1 | 3.8 | -31 | -2
O=C(NC1CCCCC1)c1ccc(S(=O)(=O)c2ccccc2Cl)c([N+](=O)[O-])c1 | -1% | -9 | -1.5 | -30 | 2
CCN(CC)C(=O)CSC1=C(C#N)C(c2cccs2)C=C(C)N1 (stereo unspecified) | 4% | 12 | 0.3 | -39 | -15
O=C(COc1ccccc1)NCCn1ccc2ccccc21 | 6% | -3 | -0.2 | 13 | 11
Cc1ccc(C(=O)Nc2cccc(N3C(=O)C4CCC(C)CC4C3=O)c2)cc1 (stereo unspecified) | · | · | -0.3 | · | -15
O=C(N/N=C\c1ccc(S(=O)(=O)O)o1)c1ccc2c(c1)OCO2 | · | · | -2.0 | · | -3
CC(=O)Nc1ccc(/C=N/NS(=O)(=O)c2cc(C)ccc2C)cc1 | 0% | · | 2.5 | · | -3
Cc1cc(Cl)ccc1OCCCC(=O)N1CCOCC1 | -3% | 3 | 0.3 | -12 | -4
CCN1CCN(CC(O)COC(c2ccccc2)c2ccccc2C)CC1 (stereo unspecified) | · | · | -1.1 | · | -1
CSc1cccc(NC(=S)N(CCCN2CCCC(C)C2)Cc2cccs2)c1 (stereo unspecified) | 8% | -1 | -0.6 | · | 9
O=C(NCc1cccs1)C1CCN(S(=O)(=O)N2CCCC2)CC1 | 2% | -3 | -3.2 | -51 | 0
COc1ccc(C2C(Oc3ccccc3)C(=O)N2c2cc(C)ccc2C)cc1OC (stereo unspecified) | · | 1 | -6.4 | 1 | -6
COc1ccccc1CCC(=O)Nc1cccc(S(=O)(=O)N2CCCC2)c1 | · | · | 0.4 | · | -23
CNNC(=S)Nc1cccc(SC)c1 | 0% | · | 2.9 | · | -7
COc1ccc(N(CC(=O)NCc2cccnc2)S(=O)(=O)c2ccccc2[N+](=O)[O-])c(OC)c1 | -3% | 5 | -0.9 | · | 0
Cc1ccc(S(=O)(=O)CCC(=O)OCC(=O)c2cc(C)ccc2C)cc1 | · | · | -1.2 | · | 0
CCOC(=O)NC(=O)CSc1nnnn1-c1ccccc1 | -1% | -3 | -1.4 | -10 | 2
COc1cccc(C2C(C(C)=O)=C(O)C(=O)N2Cc2ccco2)c1 (stereo unspecified) | -1% | -5 | 0.2 | -32 | 6
Cc1c(C(=O)Nc2ccc(Cl)cn2)oc2ccccc12 | 8% | -7 | 1.6 | -24 | -7
CC1(C)N=C(SCC(=O)Nc2ccc(Cl)cc2Cl)C(c2ccccc2)=N1 | -7% | 8 | 32* | -1 | 0
C=CCNC(=O)c1snnc1-c1ccccc1 | 7% | -2 | -2.3 | 2 | -2
c1ccc(-c2cnc(CSc3nnc4ccccn34)o2)cc1 | 0% | -1 | 1.1 | -23 | 33
Cc1nn(-c2ccc(N3CCOCC3)nn2)c(C)c1CCC(=O)NCc1ccccc1 | · | · | 0.6 | · | 4
COc1ccc(Cl)cc1C(=O)NC1=NCCS1 | · | · | 2.2 | · | -15
CCn1cc(CNC(=O)CCc2nnc(CCC3CCCCC3)o2)cn1 | 3% | 2 | 0.3 | · | -2
O=C(Nc1ccc2ccccc2c1)Nc1ccc2snnc2c1 | 80% | 5 | 11 | -16 | -4
CN(C)C(=S)c1ccc(N(C)C)cc1 | 8% | 1 | -0.3 | · | -4
COc1ccc(CNC(=O)C2CCC(CNc3c(N4CCC(C)CC4)c(=O)c3=O)CC2)cc1 (stereo unspecified) | -3% | · | -4.6 | · | -6
CCN1CCN(C(=S)NCC2CCCO2)CC1 (stereo unspecified) | 3% | 3 | -1.3 | · | -3
Cc1ccc(C)c(N(C(=O)c2csnn2)C(C(=O)NC2CCCCC2)c2cccnc2)c1 (stereo unspecified) | · | · | -2.8 | · | -1
Cc1cc(Cl)c2oc(C(=O)NC3CCC(O)CC3)c(C)c2c1 (stereo unspecified) | · | · | -0.3 | · | 3
Nn1c(SCc2ccccn2)nncc1=O | -6% | -7 | -4.7 | · | -6
Cc1ccc(S(=O)(=O)NC2c3cccc4cccc(c34)C2Sc2ncccn2)cc1 (stereo unspecified) | 4% | 4 | 8.5 | -29 | 2
O=C(NC1CCCC1)c1cccc(S(=O)(=O)N2CCCCC2)c1 | 0% | 4 | 6.0 | 1 | -15
O=C(CCc1nc(-c2ccccc2Cl)no1)NCc1ccco1 | 5% | -5 | -0.2 | · | -6
Cc1ccc(-c2nc(C(=O)NC3CCCCCC3)no2)cc1 | 1% | 5 | 0.2 | -39 | -6 | Arbovirus anti repeat=12
O=C(c1cn2ccccc2n1)N1CCCC(Nc2ccc(F)c(F)c2)C1 (stereo unspecified) | · | · | 0.0 | · | -2
NC(=O)C1CCN(C(=O)Cc2ccc([N+](=O)[O-])cc2)CC1 | 0% | 3 | -0.1 | -7 | 1
Cc1cc(C)c2nc(-c3ccccn3)cc(C(=O)N3CCCC3)c2c1 | · | · | 6.4 | · | -5
N#Cc1c(-c2ccc(Cl)cc2)ccnc1N1CCOCC1 | -4% | -5 | · | · | 8
Cc1cc(C)c(NC(=S)N(CCN2CCCCC2)Cc2ccco2)c(C)c1 | -1% | -2 | 0.3 | · | 6
